Mtb hypoxia rep: Mtb hypoxia fluorescent reporter inhibition | M. tuberculosis hypoxia-regulated fluorescent reporter, fluorescence | AID 1159583 | 0.1% of 300,000 active | fluorescence inhibition, % (no concentration beside the values);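 active = 35 to 45% if threefold the growth effect, above 45% if 1.5-fold the growth effect; inactive = the rest, general growth blockers included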;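 also: wells of about 50 µL received 100 nL stock; 0% = vehicle wells and 100% = reference inhibitor wells; whole bacteria with a GFP reporter of the hypoxia response; strong numbers were not always called active; many hits fall short of the cut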
BJeLR lethal: BJeLR cell viability loss. BJeLR (HRASV12) viability, CellTiter-Glo ATP luminescence, 48 h; reference of the scale not given here. inhibition, % (concentration not given with the values). 0.17% of 300,000 active;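 active = replicate mean above 50%; inconclusive = above 50% but judged a plate artefact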;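 also: 50 nL library stock added to about 25 µL; numbers are from one replicate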
Autofluor counter: counter-screen for toxin protease inhibitors: compound fluorescence | AID 624483 | 3.1% of 360,000 active | fluorescence intensity (no concentration beside the values) | compound autofluorescence counterscreen, microsphere flow cytometry; active compounds read high;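 active = at least 3 SD above the mean of all compounds, about 16000 in these data; inconclusive = too few beads counted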;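 also: 100 nL of 1 mM stock went into each well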
PrP 5UTR inh: inhibition of PrP 5' UTR reporter expression; 0.35% of 340,000 active; cell-based PrP 5' UTR mRNA reporter, plate reader; AID 488862; inhibition, % (no concentration beside the values);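 active = every replicate at 50% or more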;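 also: 0 = median of the neutral control wells; tested in H4 reporter cells; numbers are from one replicate; inactives centre near -14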
Sa ugtP lethal: kills S. aureus RN4220 lacking UgtP | S. aureus RN4220 ugtP deletion, OD600 growth, 16 h; some inactives read as strong as hits | 0.54% of 330,000 active | growth inhibition, % (no concentration beside the values) | AID 1259309;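 active = z-score under -3 and OD600 up to 0.15 on both plates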;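 also: plate controls were untreated wells for no effect and antibiotic for full effect; wells of about 80 µL received 100 nL stock; the first replicate is given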
RN4220 kill: S. aureus RN4220 growth inhibition; inhibition, % (test concentration not listed); OD600, 16 h; 0.33% of 330,000 active; AID 1259311;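 active = z-score of -3 or lower and OD600 up to 0.18 on both plates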;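 also: plate controls were untreated cells for no effect and reference antibiotic for full effect; stock transfer was 100 nL into about 80 µL; one replicate is shown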
Mtb hypoxia rep growth: second read-out of Mtb hypoxia rep, no call of its own (marks repeat the call); growth inhibition, %; measured here: M. tuberculosis growth (absorbance);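 0% = vehicle and 100% = reference antibiotic; read after six days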
* hit, by the source's call; ? = inconclusive; . = not tested or not shown. This is a random part of the collection (roughly 3.9% active in at least one column).

SMILES	Mtb hypoxia rep	Mtb hypoxia rep growth	BJeLR lethal	Autofluor counter	PrP 5UTR inh	Sa ugtP lethal	RN4220 kill
O=S(=O)(F)c1ccc2nc(-c3cccc(Sc4ccccc4)c3)cc(Cl)c2c1	8	12	-4	4794	-12	21	2.9
CCCC(=O)c1cn(CC(=O)OC)c2ccccc12	8	-18	-4	.	-11	-3	-13
COc1ccc(CNC(=O)CN2C(=O)NC(Cc3ccccc3)(c3ccccc3)C2=O)cc1OC (configuration not stated)	12	29	.	3770	-8	23	-4.0
Nc1cc(-c2cccc(Br)c2)nn1Cc1ccccc1	5	8	9	2067	-20	-8	4.5
O=C(Nc1ccc(N2CCN(C(=O)c3ccco3)CC2)cc1)c1ccco1	-1	8	-7	3782	-2	8	5.8
O=C(CNC(=O)c1ccc(Br)o1)Nc1ccccc1	-3	4	6	4243	-15	8	4.1
CC1CC1C(=O)OCC(=O)NC(=O)c1ccc(C(C)(C)C)cc1 (configuration not stated)	15	8	.	3121	-7	15	5.5
CCOc1ccc(NC(=O)NCC2CCN(c3ccc(OC)cc3)C2)cc1 (configuration not stated)	5	5	-7	10579	-3	6	3.1
CCOc1ccccc1N1CC(C(=O)NCCOc2ccccc2OC)CC1=O (configuration not stated)	3	-25	-2	.	-27	11	5.3
COc1ccc(S(=O)(=O)N2CCOCC2)cc1NC(=O)C1CCN(S(=O)(=O)c2ccc(Cl)cc2)CC1	0	-7	.	2921	-3	-3	1.9
CCOc1ccc(Br)cc1CNCc1cccnc1	-8	-6	7	3016	-30	-7	-2.4
O=C1CC(=O)Nc2cc(S(=O)(=O)Nc3ccc(F)cc3Cl)ccc2N1	.	.	-8	6222	-11	1	0.8
Cc1cc(C)cc(N2C(=O)CC(Sc3ncn[nH]3)C2=O)c1 (configuration not stated)	6	0	0	2273	-19	6	6.9
Cc1noc(C)c1COc1cccc(C(=O)N(C)Cc2cccs2)c1	9	6	.	3960	-9	8	3.6
O=C1C(Nc2ccccc2)=C(NS(=O)(=O)c2ccccc2)C(=O)c2ccccc21	-5	3	7	8075	-36	1	20
COc1ccccc1-c1sc2ccccc2c1-c1ccc(OCCN2CCOCC2)cc1	4	5	.	3917	-22	25	2.9
O=C(N/N=C/c1cc2c(cc1[N+](=O)[O-])OCO2)c1ccc2c(c1)OCO2	.	.	-1	3970	-30	.	.
CC(C)CNC(=O)CCCc1c[nH]c2ccccc12	-1	0	4	4126	-14	-3	1.7
CCOc1ccc(S(=O)(=O)N2CCCCC2)cc1NC(=O)CN1C(=O)NC(C)(C2CC2)C1=O (configuration not stated)	14	6	.	3786	10	-3	-0.7
CCCCNC(=S)Nc1ccc(SC(F)F)cc1	.	.	6	3677	-33	-3	-40
Cc1ccn2c(=O)c(NC(=O)c3ccc(Br)o3)c(C)nc2c1	-1	7	-1	?	7	0	1.3
Cc1ccc(SCc2cc(=O)[nH]c(Nc3nc(C)c4ccc(C)cc4n3)n2)cc1	-6	-1	0	2447	-7	-3	4.6
COc1ccc(N(C(C)C(=O)Nc2cccnc2)S(C)(=O)=O)cc1 (configuration not stated)	10	2	-3	3461	-20	4	4.3
CCOC(=O)C1CCCN(C(=O)c2ccc3c(=O)n(Cc4ccccc4OC)c(=S)[nH]c3c2)C1 (configuration not stated)	4	4	-15	5133	-10	3	0.6
COCCNC(=O)c1cn(C(C)c2ccccc2F)nn1 (configuration not stated)	2	-5	5	.	.	2	2.1

Compounds above with a furan ring, fused or not, in the order listed:
SMILES	Mtb hypoxia rep	Mtb hypoxia rep growth	BJeLR lethal	Autofluor counter	PrP 5UTR inh	Sa ugtP lethal	RN4220 kill
O=C(Nc1ccc(N2CCN(C(=O)c3ccco3)CC2)cc1)c1ccco1	-1	8	-7	3782	-2	8	5.8
O=C(CNC(=O)c1ccc(Br)o1)Nc1ccccc1	-3	4	6	4243	-15	8	4.1
Cc1ccn2c(=O)c(NC(=O)c3ccc(Br)o3)c(C)nc2c1	-1	7	-1	?	7	0	1.3

New compounds follow
SMILES	Mtb hypoxia rep	Mtb hypoxia rep growth	BJeLR lethal	Autofluor counter	PrP 5UTR inh	Sa ugtP lethal	RN4220 kill
COc1ccc(-c2cnnc(NN=Cc3ccc(O)c(OC)c3)n2)cc1	4	0	.	.	.	-23	3.0
COc1ccc(CCNc2nc(-c3ccc(NC(C)=O)cc3)cs2)cc1OC	0	11	-4	4136	-15	-3	4.6
CCOC(=O)Cc1[nH]nc2c1C(c1ccsc1)C(C#N)=C(N)O2 (configuration not stated)	17	9	-1	3606	53*	7	13
CC(C)C(NC(=O)Cc1ccccc1[N+](=O)[O-])C(C)C	-3	-2	10	2097	-15	8	3.4
CCCCn1c(-c2ccco2)nc2oc3ccccc3c(=O)c2c1=O	9	-1	11	4281	-14	-10	13
CC(=NNC(=O)c1cc(-c2ccc(C)s2)[nH]n1)c1ccncc1	3	3	.	.	.	7	9.1
COc1ccc(C(=O)N/C(=C/c2ccco2)C(=O)N2CCCCCC2)cc1	2	11	-3	5406	-21	-12	-0.9
Cc1cccc(NC(=O)COC(=O)CCc2c[nH]c3ccccc23)c1	22	21	.	8378	-24	1	5.0
CN(C)C(CNC(=O)CCCOc1ccccc1)c1ccco1 (configuration not stated)	11	5	1	22870*	-25	6	3.0
C/C(N)=C(/C#N)C(=O)COC(=O)c1ccccc1Cc1ccccc1	0	-2	1	4843	-26	-1	9.6
Cc1ccc(S(=O)(=O)N2CCCCC2)cc1NC(=O)CSc1ccc2c(c1)OCCO2	10	3	-4	2490	-21	3	2.0
CCOC(=O)N1CCN(C(=S)NC(=O)c2ccc(F)c(F)c2)CC1	12	12	-22	4315	-19	8	14
Cc1c(C)n(C)c2ccc(C(=O)NCCCN3CCOCC3)cc12	11	3	-2	5796	-29	4	1.4
CN(C)c1cccc(C(=O)OCCCC(=O)c2ccc(F)cc2)c1	-1	1	.	3565	-22	2	4.4
O=C(COc1ccc2c(c1)OCO2)Nc1ccccc1F	9	7	10	2580	-64	9	3.3
NC1=Nc2ccccc2Oc2ccccc21	9	3	15	16347*	-11	62	7.2
CCN(CC)S(=O)(=O)c1ccc(C)c(NC(=O)CSc2ncc(C(F)(F)F)cc2Cl)c1	-1	0	-12	2503	-16	0	2.0
Cc1nc(N2CCCCC2C)c2c(C)c(C(=O)Nc3cccc(C(F)(F)F)c3)sc2n1 (configuration not stated)	1	5	-5	2643	-26	-34	4.3
COc1cc(C(=O)OCCc2cc3ccccc3c(=O)o2)cc(OC)c1OC	7	13	.	2976	-15	-5	5.9
Cc1ccc(N(CC(=O)NC2CCCCC2)S(=O)(=O)c2cccs2)cc1	-9	1	-14	5533	1	11	7.7
CCOC(=O)c1nnn(-c2nonc2N)c1CSc1ccccn1	2	8	-3	8926	-3	-1	0.8
Cc1ccc(S(=O)(=O)NCCC(=O)OCC(=O)Nc2cccc(Cl)c2)cc1	-9	-2	.	3897	-27	-7	-4.8
Brc1ccccc1OCCN1CCOCC1	13	5	8	3501	-22	4	4.7
COCC(C)n1c(SCC(=O)Nc2c(C)n(C)n(-c3ccccc3)c2=O)nc2ccccc2c1=O (configuration not stated)	0	5	.	?	9	3	1.1
CCOc1ccccc1NC(=O)/C=C/c1ccccc1[N+](=O)[O-]	-1	15	-11	2490	-32	-5	3.6

Part of the list above in order of count of non-hydrogen atoms, low to high.
SMILES	Mtb hypoxia rep	Mtb hypoxia rep growth	BJeLR lethal	Autofluor counter	PrP 5UTR inh	Sa ugtP lethal	RN4220 kill
CC1CC1C(=O)OCC(=O)NC(=O)c1ccc(C(C)(C)C)cc1 (configuration not stated)	15	8	.	3121	-7	15	5.5
O=S(=O)(F)c1ccc2nc(-c3cccc(Sc4ccccc4)c3)cc(Cl)c2c1	8	12	-4	4794	-12	21	2.9
CCOC(=O)C1CCCN(C(=O)c2ccc3c(=O)n(Cc4ccccc4OC)c(=S)[nH]c3c2)C1 (configuration not stated)	4	4	-15	5133	-10	3	0.6
COc1ccc(S(=O)(=O)N2CCOCC2)cc1NC(=O)C1CCN(S(=O)(=O)c2ccc(Cl)cc2)CC1	0	-7	.	2921	-3	-3	1.9

Single entries from the entries so far:
COCC(C)n1c(SCC(=O)Nc2c(C)n(C)n(-c3ccccc3)c2=O)nc2ccccc2c1=O (configuration not stated) | PrP 5UTR inh = 9
CN(C)c1cccc(C(=O)OCCCC(=O)c2ccc(F)cc2)c1 | Sa ugtP lethal = 2
COc1ccc(CCNc2nc(-c3ccc(NC(C)=O)cc3)cs2)cc1OC | RN4220 kill = 4.6
CC(C)C(NC(=O)Cc1ccccc1[N+](=O)[O-])C(C)C | RN4220 kill = 3.4

Record cards, from the list above. Order of values: Mtb hypoxia rep, Mtb hypoxia rep growth, BJeLR lethal, Autofluor counter, PrP 5UTR inh, Sa ugtP lethal, RN4220 kill
Brc1ccccc1OCCN1CCOCC1 is entered as 13, 5, 8, 3501, -22, 4, 4.7
COc1ccc(C(=O)N/C(=C/c2ccco2)C(=O)N2CCCCCC2)cc1 is entered as 2, 11, -3, 5406, -21, -12, -0.9

The list goes on:
SMILES	Mtb hypoxia rep	Mtb hypoxia rep growth	BJeLR lethal	Autofluor counter	PrP 5UTR inh	Sa ugtP lethal	RN4220 kill
CCn1c2ccccc2c2cc(CN3CCN(S(C)(=O)=O)CC3)ccc21	6	1	12	10683	-4	-9	6.1
Cc1ccc(Cl)cc1NS(=O)(=O)c1ccc2c(c1)NC(=O)C(C)C(=O)N2 (configuration not stated)	-2	4	-9	6420	0	6	8.4
CCOCCN1CCN(c2c3c(nc4cc(-c5ccc(F)cc5)nn24)CCC3)CC1	8	4	1	4113	-3	0	1.2
CN(C(=O)COC(=O)c1cc([N+](=O)[O-])ccc1N1CCCC1)C1CCS(=O)(=O)C1 (configuration not stated)	-1	7	-1	4279	-14	4	12
CC(C)CNC(=S)Nc1ccc(Oc2ccccc2)cc1	-1	4	-9	2447	-28	-14	-3.1
CC(C)c1ccc(O)c(NC(=O)c2ncn[nH]2)c1	15	6	.	8951	-20	-2	4.5
O=C(/C=C/c1ccc(O)c(O)c1)OC(Cc1ccc(O)c(O)c1)C(=O)O (configuration not stated)	.	.	-5	5572	-7	.	.
COCc1c(N)c(C)nc(Cl)c1C#N	1	9	-8	3943	-17	3	5.4
NC(=O)c1ccccc1NS(=O)(=O)c1ccccc1	14	3	-3	8559	-12	3	2.3
CCCCN(CCCC)C(=O)c1cc2ccccc2c(=O)o1	1	7	4	8928	-11	4	-1.1
O=C(CN1C(=O)C2CCCCC2C1=O)Nc1ccccc1C(=O)O (configuration not stated)	-6	5	-4	5254	-14	-1	2.5
COC(=O)CNC(=O)c1ccccc1C	.	.	-3	3502	-9	2	0.1
CNC(=O)Nc1ccc(C(=O)N/N=C\C23CC[C@@H](O)CC2(O)CC[C@@H]2[C@@H]3CCC3(C)C(C4=CC(=O)OC4)CCC23O)cc1 (some centres not stated)	.	.	-1	3832	-21	.	.
CCNC(=S)Nc1ccc(Cl)c(C(F)(F)F)c1	6	10	-5	2420	-28	-21	2.3
Cn1nc(C(F)(F)F)c(/C=N/OC(=O)c2ccccc2)c1SCc1ccccc1Cl	.	.	7	6025	-38	.	.
COc1ccccc1C=NNC(=O)c1ccncc1	.	.	.	3856	-21	1	2.0
COc1cc(Cl)ccc1OCc1cc(C(=O)NC(C)Cc2cccnc2)no1 (configuration not stated)	2	-13	-13	.	-28	3	2.5
CCOc1ccc(N(C(C)C(=O)NN=C(C)C(C)(C)C)S(C)(=O)=O)cc1 (configuration not stated)	6	3	.	.	.	-1	2.4
O=C(Nc1ccc2c(c1)OCO2)C(c1ccc(Cl)cc1)N1CCC2(CC1)OCCO2 (configuration not stated)	.	.	-5	4613	-26	0	-6.1
C/C(CC(=O)NCc1ccc(Cl)cc1)=N\NC(=O)Cc1ccccc1	.	.	-2	2077	-12	.	.
CC(CC(=O)Nc1nc2ccccc2[nH]1)n1ccnc1 (configuration not stated)	11	8	-6	4129	-16	4	8.5
COc1cccc(C(=O)Nc2ccc(NC(=O)c3cc4ccccc4o3)c(OC)c2)c1	-1	12	-14	3740	-77	2	7.4
CCON=C(C)c1c(O)c(CC)c(-c2ccccc2)n(-c2ccccc2)c1=O	4	5	.	.	.	2	-0.1
COc1ccc(C(=O)NCCC2=CCCCC2)cc1S(=O)(=O)N1CCOCC1	2	8	3	6067	-11	2	0.8
C[C@@H](c1ccccc1)N1Cc2ccccc2Oc2cc(Br)ccc2S1(=O)=O	6	7	.	2890	-20	34	-1.5
